Source: PubChem BioAssay
HPGD inh: blocks human HPGD enzyme activity | purified HPGD, NADH fluorescence kinetic, PGE2 substrate | Potency, µM, inactives show at the highest dose activity change, negative = inhibition, usual class: inhibitors | P15428 | 150,000 compounds, 4.3% hits; active = well fitted inhibition curve with a large enough effect (not every such curve was filed as active); inconclusive = small, poorly fitted or top-dose-only effect, or another doubt; inactive = no such curve, though single readings can be large or run the other way;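 further: top concentration of the series not given in the record; plate controls included wells without enzyme; inactives centre near -10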
Target sequence (P15428 whole entry, looked up): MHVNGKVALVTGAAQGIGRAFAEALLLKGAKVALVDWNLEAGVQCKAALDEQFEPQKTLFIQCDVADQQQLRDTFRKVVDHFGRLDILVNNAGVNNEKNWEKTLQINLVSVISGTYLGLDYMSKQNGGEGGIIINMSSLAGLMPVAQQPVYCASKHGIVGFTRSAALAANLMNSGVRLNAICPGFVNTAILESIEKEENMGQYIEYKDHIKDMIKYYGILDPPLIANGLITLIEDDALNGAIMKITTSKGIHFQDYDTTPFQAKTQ
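20 nM HPGD preincubated 15 min at room temperature with compound in 50 mM Tris-HCl pH 8, 0.01% Tween 20. Started with 1 mM NAD+ and 30 uM prostaglandin E2; NADH fluorescence (360/450 nm) read 5 times over 30-s intervals, last minus first.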
Active calls of the source: *; ? = inconclusive. On the % scale 0 is the no-effect control and ±100 the full control effect; potency means the concentration at half of the fitted maximal effect. The list is partial. The share of hits here may be higher or lower than overall.

entry	SMILES	HPGD inh
1	COc1c(Cl)cc(-c2noc(C)c2C(=O)NCc2ccccc2)cc1Cl	-14%
2	COc1ccc(C(=O)Oc2ccc(/C=N/NC(=O)Cc3ccc([N+](=O)[O-])cc3)cc2)cc1	-1%
3	CCCCN(CC)S(=O)(=O)c1ccc(C(=O)Nc2nnc(-c3ccccc3Cl)o2)cc1	-17%
4	c1coc(Cn2nnnc2CN2CCN(C3CCCCC3)CC2)c1	-4%
5	O=C(NCCN1C(=O)S/C(=C\c2ccc(F)cc2)C1=O)c1cccc(S(=O)(=O)N2CCOCC2)c1	-14%
6	CN(C)CCCNCC(=O)Nc1ccccc1N1CCOCC1	0%
7	Cc1[nH]nc2c1C(Cc1ccccc1)C(C#N)=C(N)O2 (stereo unspecified)	?
8	NC(=O)c1ccsc1NC(=O)COC(=O)c1ccccc1NCc1ccco1	?
9	CCCc1cc(-c2n[nH]c(=S)n2CC(C)C)cs1	?
10	Cc1c(Cc2ccc3c(c2)OCO3)sc(NC(=O)c2cccc3ccccc23)c1C(N)=O	14µM*
11	CCC(C(=O)N1CC2(C)CC1CC(C)(C)C2)N1C(=O)c2ccccc2C1=O (stereo unspecified)	-5%
12	COc1cccc(NC(=O)CSc2nc3ccccc3c(=O)n2Cc2cccs2)c1	-7%
13	Cn1nccc1C(=O)N1CCc2ccccc21	-7%
14	COc1ccc(-n2c(=O)c3ccccc3c3ccccc3c2=O)c(OC)c1	-12%
15	Cc1nn(Cc2ccc(C(=O)NC(C)(C)C)o2)c(C)c1Br	-8%

Further compounds follow:
entry	SMILES	HPGD inh
16	C=CCc1ccc(OCCOc2cccc3cccnc23)c(OC)c1	-16%
17	CCn1c(SCC(=O)Nc2cccc(F)c2)nnc1-c1cc2cc(Br)ccc2o1	-14%
18	COC(=O)c1cccc(NS(=O)(=O)c2cccs2)c1C	-7%
19	N#Cc1nc(COc2ccccc2Cl)oc1NCc1ccco1	?
20	CC(C)(C)n1ncc2c(=O)n(CC(=O)N3CCN(c4ccccc4)CC3)cnc21	-4%
21	CC1CN(S(=O)(=O)c2cccc(C(=O)NCCCn3ccnc3)c2)CC(C)O1 (stereo unspecified)	0%
22	COc1cccc(-c2nn(-c3ccccc3)cc2C(=O)Nc2nccs2)c1	?
23	OCCCNc1nc(-c2ccc(Br)cc2)nnc1-c1ccc(Cl)cc1	-5%
24	Cn1cnnc1SCC(=O)c1ccc2c(c1)OCCO2	-22%
25	COC(=O)CCP(=O)(O)Cc1ccccc1CP(=O)(O)CCC(=O)OC	-1%
26	COc1ccc(/C=N/n2cnc3scc(-c4cccs4)c3c2=O)cc1OC	-20%
27	O=C(Nc1ccc(S(=O)(=O)N2CCCC2)cc1)C1COc2ccccc2O1 (stereo unspecified)	-10%
28	COc1ccccc1C(=O)Nc1c2c(nn1-c1cccc(C)c1C)CS(=O)(=O)C2	?
29	COc1ccc(-c2cccc(C(=O)Nc3ccc(C)cc3)c2)cc1	-10%
30	CCC(=NC(CC)CO)C1=C(O)CC(C)(C)CC1=O (stereo unspecified)	-4%

(further entries)
entry	SMILES	HPGD inh
31	COC(=O)c1c(-c2ccc3ccccc3c2)csc1NC(=O)Cc1ccc(OC)c(OC)c1	-11%
32	CC(C)NS(=O)(=O)c1ccc2c(c1)oc(=O)n2C	-7%
33	Cc1cnc(NC(=O)c2c(O)c3cccc4c3n(c2=O)CCC4)s1	-4%
34	Cn1cccc1/C=N/n1cnnc1	-22%
35	Cc1nn(Cc2ccc(Cl)cc2)c(C)c1NC(=O)Cn1nc([N+](=O)[O-])c(Cl)c1C	-2%
36	Cc1cc(C(=O)N2CCN(c3ncccn3)CC2)c(C)o1	-17%
37	Cc1cnn(CCC(=O)NNC(=S)NCC(C)C)c1	-9%
38	Cc1ccc(-n2c(SCC(=O)NCc3ccco3)nc3sc4c(c3c2=O)CC(C)(C)SC4)cc1	-15%
39	COc1ccc(C(=O)NC(=S)Nc2ccc3c4c(cccc24)CC3)cc1OC	-15%
40	Cc1ccc(NC(=O)N2CCCN(Cc3ccc(F)cc3)C2)cc1C	-15%
41	COc1ccc(N=C2C(=O)N3CCCc4cccc2c43)cc1	-20%
42	Clc1ccc(SCc2cc(-c3ccccc3)no2)cc1	0%
43	C=CCn1c(SCC(=O)c2ccc(NS(=O)(=O)c3ccccc3)cc2)nnc1-c1cccs1	?
44	CC(C)C(=O)Nc1ccc(NC(=S)NC(=O)c2ccc([N+](=O)[O-])cc2)cc1	-10%
45	Cc1[nH]c2ccccc2c1C(=O)Cn1c(=O)oc2ccccc21	-1%

Remaining list, next part
entry	SMILES	HPGD inh
46	CCCn1c(SCC(=O)N2N=C3/C(=C/c4ccc(OC)cc4)CCCC3C2c2ccc(OC)cc2)n[nH]c1=O (stereo unspecified)	?
47	CCOC(=O)C(C(=O)N1CCOCC1)C1CCCCC1 (stereo unspecified)	-14%
48	CCOC(=O)CN(C(=O)CSc1nnc2c(n1)[nH]c1ccc(F)cc12)c1ccccc1	-21%
49	CO/N=C(/C(=O)N[C@@H]1C(=O)N2C(C(=O)O)=C(COC(N)=O)CS[C@H]12)c1ccco1	-2%
50	O=C(Nc1ccc(Cl)cn1)c1ccc(COCC(F)(F)C(F)F)o1	-3%
51	O=C(COc1ccc2ccccc2c1Br)Nc1ncn[nH]1	-10%
52	COc1cc2nc(C)sc2cc1SC	-18%
53	O=S(=O)(Nc1cccc(-c2nc3cccnc3s2)c1)c1ccc2c(c1)OCCO2	-22%
54	C=CCN1C(=O)C2(C(C#N)=C(N)Oc3n[nH]c(CCC)c32)c2ccccc21 (stereo unspecified)	-3%
55	CCN(Cc1ccccc1)C(=O)Cn1c(=O)n(CC(=O)NCc2ccco2)c(=O)c2sccc21	-9%
56	O=c1sc2ccccc2n1COc1ccccc1	-16%
57	CC(=O)N1N=C(C)CC1c1ccc(OCc2ccccc2)cc1 (stereo unspecified)	-16%
58	CCNC(=O)c1ccc2c(c1)S(=O)(=O)c1ccccc1C2=O	-14%
59	Cc1cccc(Nc2ccccc2C(=O)OCC(=O)N(C)C2CCS(=O)(=O)C2)c1C (stereo unspecified)	-16%
60	CC(C)c1ccccc1OCCNS(C)(=O)=O	-6%

Structural class: the compounds so far with a cyano group
entry	SMILES	HPGD inh
7	Cc1[nH]nc2c1C(Cc1ccccc1)C(C#N)=C(N)O2 (stereo unspecified)	?
19	N#Cc1nc(COc2ccccc2Cl)oc1NCc1ccco1	?
54	C=CCN1C(=O)C2(C(C#N)=C(N)Oc3n[nH]c(CCC)c32)c2ccccc21 (stereo unspecified)	-3%

Further structures follow.
entry	SMILES	HPGD inh
61	CCOC(=O)c1c(C)[nH]c(C(=O)COC(=O)[C@H](C)NC(=O)c2ccccc2Cl)c1C	-16%
62	CCc1ccc2nc3sc(C(=O)Nc4nnc(CC)s4)c(N)c3cc2c1	-21%
63	CC(=O)Nc1ccc(Sc2ncccc2C(=O)Nc2cc(Cl)cc(Cl)c2)cn1	-10%
64	CN(C)S(=O)(=O)c1ccc(NC(=O)CSc2nc3ccccc3n2-c2ccccc2)cc1	-9%
65	O=C(OCCN1C(=O)c2ccccc2C1=O)C1CCN(S(=O)(=O)c2cccs2)CC1	1%
66	CCOC(=O)C1CCCN(C(=O)c2ccc(C)c([N+](=O)[O-])c2)C1 (stereo unspecified)	-14%
67	COc1cc(C2Nc3ccccc3C(=O)N2c2ccc(Cl)cc2)c(Cl)cc1OCC(=O)O (stereo unspecified)	?
68	O=C(CCc1nc(-c2ccccc2)no1)NC1CCCCC1	18µM*
69	O=C(NCCc1ccccc1)C(=O)N/N=C/c1ccc2c(c1)OCO2	-12%
70	N#Cc1nc(Cc2ccccc2)oc1NCc1ccccc1Cl	-20%
71	CCn1c(SCC(=O)NC)nnc1C(C)C	-8%
72	COc1cc(C2Nc3cccc4cccc(c34)N2)ccc1OC(C)=O	-10%
73	CC/C(=N\NC(=O)CSCc1ccccc1Br)c1ccc2c(c1)OCCO2	-2%
74	CCOc1cc(C2C(C#N)=C(N)Oc3n[nH]c(C)c32)ccc1OCCN1CCOCC1 (stereo unspecified)	-10%
75	O=C(CN(C(=O)CSc1nnc(COc2ccccc2)o1)c1ccc(F)cc1)NC1CCCCC1	-1%

Reformatted with each value named: part of the list above
71: CCn1c(SCC(=O)NC)nnc1C(C)C
  HPGD inh: -8%

72: COc1cc(C2Nc3cccc4cccc(c34)N2)ccc1OC(C)=O
  HPGD inh: -10%

73: CC/C(=N\NC(=O)CSCc1ccccc1Br)c1ccc2c(c1)OCCO2
  HPGD inh: -2%

74: CCOc1cc(C2C(C#N)=C(N)Oc3n[nH]c(C)c32)ccc1OCCN1CCOCC1 (stereo unspecified)
  HPGD inh: -10%

Additional entries.
entry	SMILES	HPGD inh
76	CCN(CC)S(=O)(=O)c1ccc(NC(=O)CSc2ncnc3ccccc23)cc1	-13%
77	CCN(CC)C(=O)CN1C(=O)COCC1=O	2%
78	Cc1cc(C(=O)COc2ccc3ccc(=O)oc3c2)c(C)n1Cc1cccs1	?
79	Cc1ccc(NC(=O)c2ccccc2NS(=O)(=O)c2ccc(Cl)s2)cc1S(=O)(=O)N1CCOCC1	-2%
80	Cc1ccc(S(=O)(=O)NC(=O)c2cc(C)n(CCCn3ccnc3)c2C)cc1	-7%
81	Cc1ccc(OCC(=O)Nc2ccc(S(=O)(=O)N3CCN(C)CC3)cc2)cc1	3%
82	COc1ccc(NC(=O)NCCCN2CCN(c3cc(C)ccc3C)CC2)cc1	-7%
83	Cc1ccc(NC(=O)c2cnccn2)cc1S(=O)(=O)N(C)C	-1%
84	C/C(=N/Oc1nc(C)cc(C)n1)c1ccc(Cl)cc1Cl	-22%
85	CN(C)c1nc(N)c(C(=O)Nc2cccnc2)nc1Cl	?
86	CCOC(=O)Nc1ccc2c(c1)N(C(=O)CCN(C)C)c1ccccc1S2	-2%
87	O=C(CCN1CCN(c2ccccn2)CC1)Nc1ccc(F)cc1	-9%
88	Cc1ccc(OCc2ccc(C(=O)Nc3c(C)nn(Cc4c(F)c(F)c(F)c(F)c4F)c3C)o2)c([N+](=O)[O-])c1	-19%
89	Cc1ccc(-c2nnc(-c3ccc(NC(=O)Cc4cccs4)cc3)o2)cc1	?
90	O=C(Nc1cccc2oc(=O)ccc12)c1ccc([N+](=O)[O-])cc1[N+](=O)[O-]	-13%

(continued)
entry	SMILES	HPGD inh
91	Cc1nn(-c2cc(C)c3ccccc3n2)c2c1CCC2	-9%
92	CC1CCN(c2cc(C#N)c(C#N)cc2[N+](=O)[O-])CC1	-7%
93	O=P(O)(CCc1ccccn1)CN1CCCCC1	-12%
94	Cc1[nH]c(=O)[nH]c(=O)c1NC(=O)c1cccs1	4%
95	COc1ccc(/C=C/C(=O)NC(C)C)cc1Br	-24%
96	Cc1cccc(N(CC(O)CN(C)C)S(=O)(=O)c2ccccc2)c1 (stereo unspecified)	-7%
97	CN(CC(=O)Nc1ccc(S(=O)(=O)N2CCCC2)cc1)Cc1cccc(Cl)c1Cl	-1%
98	Cc1nc(SCC(=O)c2ccccc2)c(C#N)c(-c2ccco2)c1C(=O)NCc1ccco1	-21%
99	CCOC(=O)c1c(-c2ccccc2)csc1NC(=O)CSc1ccccc1	-17%
100	Cc1cc2n(n1)C(c1ccc3c(c1)OCO3)Nc1ccccc1-2 (stereo unspecified)	?
101	CCOc1ccc2[nH]c(=O)c(CN(CC3CCCN3CC)C(=O)NCc3ccccc3)cc2c1 (stereo unspecified)	?
102	COCCNC(=O)c1ccc2c(=O)n(CCOC)c(=O)[nH]c2c1	?
103	O=C(O)C1CC(=O)N(C2CCCCC2)C1c1ccccc1 (stereo unspecified)	-3%
104	Cn1c(=O)n(C)c2cc(S(=O)(=O)O)ccc21	-4%
105	Cc1ccc(-c2nn(CC(=O)Nc3cccnc3)c(=O)c3ccccc23)cc1	-9%

The listing continues:
entry	SMILES	HPGD inh
106	Cc1ccc2nc(N3CCN(Cc4nnnn4Cc4ccccc4)CC3)c(C#N)cc2c1	?
107	Cc1nnc(SCC(=O)Nc2nccs2)[nH]c1=O	-12%
108	COc1ccc(Cc2nnc(NC(=O)c3ccc(Cl)c([N+](=O)[O-])c3)s2)cc1	-9%
109	CCc1cc2c(NCC(=O)O)ncnc2s1	-14%
110	CC(=O)C1C(c2ccc(Cl)cc2)NC(=O)NC1(O)C(F)(F)F (stereo unspecified)	-5%
111	Cc1cc(C)cc(N(CC(=O)N2CCc3ccccc32)S(=O)(=O)c2c(C)noc2C)c1	-14%
112	CCCNC(=O)C1CCN(S(=O)(=O)c2ccc3nc4c(c(C(=O)O)c3c2)CCCCC4)CC1	-11%
113	CCOC(=O)N1CCN(C(=O)c2ccccc2NC(=O)COc2ccccc2C)CC1	0%
114	O=C(O)CCCNc1ccc(S(=O)(=O)Nc2ccccc2C(=O)O)cc1C(=O)O	-26%
115	COCCNc1nc(N)c([N+](=O)[O-])c(NCCO)n1	-10%
116	CCOc1ccccc1C(=O)N(CN1CCCC1=O)c1ccc(C)c(Cl)c1	-4%
117	Cc1nn(C)c(C)c1NC(=O)CSc1nnc(C)n1-c1ccccc1	-7%
118	Cc1cc2cc(CCNS(C)(=O)=O)c(=O)[nH]c2cc1C	?
119	Cc1cc(C)n(Cc2ccc(C(=O)O)cc2)n1	-5%
120	COc1ccccc1/C=C/CN1CC(C)OC(C)C1 (stereo unspecified)	1%

Next part:
entry	SMILES	HPGD inh
121	CP(=O)(COC(=O)c1ccccc1)COC(=O)c1ccccc1	-14%
122	COC(=O)c1[nH]c2ccccc2c1NC(=O)c1ccccc1[N+](=O)[O-]	0%
123	Cn1c(-c2c(N)n(CCCc3ccccc3)c3nc4ccccc4nc23)nc2ccccc21	?
124	Cc1cc(N/C=C2\CCCCC2=O)no1	-19%
125	CCCC(=O)n1nc(-c2cccnc2)nc1N	?
126	CSC(=NC#N)N1CCN(c2ccccc2)CC1	-13%
